HPGD inh: qHTS Assay for Inhibitors of HPGD (15-Hydroxyprostaglandin Dehydrogenase) | Potency, µM, without a hit: at the highest dose activity change, negative = inhibition, most hits filed as inhibitors | 15-hydroxyprostaglandin dehydrogenase [NAD(+)] (Homo sapiens), P15428 | purified HPGD, NADH fluorescence kinetic, PGE2 substrate | AID 894, 2007 | hit rate 4.3% among 150,000; active = well fitted inhibition curve with a large enough effect (not every such curve was filed as active); inconclusive = small, poorly fitted or top-dose-only effect, or another doubt; inactive = no such curve, though single readings can be large or run the other way;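 note: top concentration of the series not given in the record; plate controls included wells without enzyme; inactives centre near -10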
Target sequence (P15428 whole entry, looked up): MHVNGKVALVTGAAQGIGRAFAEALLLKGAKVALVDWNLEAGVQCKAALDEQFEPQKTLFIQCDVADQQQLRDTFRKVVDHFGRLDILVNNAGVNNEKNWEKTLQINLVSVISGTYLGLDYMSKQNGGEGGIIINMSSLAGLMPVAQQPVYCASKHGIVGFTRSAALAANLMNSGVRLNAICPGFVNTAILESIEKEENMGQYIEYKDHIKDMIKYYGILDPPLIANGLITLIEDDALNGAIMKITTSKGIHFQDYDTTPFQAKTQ
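20 nM HPGD preincubated 15 min at room temperature with compound in 50 mM Tris-HCl pH 8, 0.01% Tween 20. Started with 1 mM NAD+ and 30 uM prostaglandin E2; NADH fluorescence (360/450 nm) read 5 times over 30-s intervals, last minus first.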
Numbers without * were called inactive; ? = inconclusive; & = joins results of further samples. % is set by controls: 0 for no effect and ±100 for the full control effect; potency is the fitted concentration of half-maximal effect. A portion of the library; count on the stated rates, not on these rows.

SMILES	HPGD inh
CCOc1ccc(OCC)c(Nc2cc(C)nc3ncnn23)c1	4.5µM*
CCOc1cc2[nH]c(=S)n(CC3CCCN3CC)c(=O)c2cc1OCC (centres undefined)	-7%
O=C(CSC1=NCCS1)Nc1nc(-c2ccccc2)cs1	-15%
CCC1=Nc2cc(C(=O)NCc3ccco3)ccc2Sc2ccc(C)cc21	-4%
C=CCn1c(SCC(=O)c2ccc(Cl)cc2)nnc1-c1ccc2c(c1)OCO2	8.9µM*
COc1cc(NC(=O)C2CCN(S(=O)(=O)c3ccc(Cl)cc3)CC2)ccc1-n1cnnn1	-15%
CC(C)(C)NC(=O)Cn1c(SCC(=O)NC2CCCCC2)nc2ccccc21	-2%
OCCNc1nc(SCc2ccccc2)nc2sc3c(c12)CCC3	-12%
COC(=O)Cc1ccc(NC(=S)N2CCN(c3ccc(F)cc3)CC2)cc1	-3%
COc1ccccc1C1Nc2cccc3cccc(c23)N1	?
COC(=O)c1cc(S(=O)(=O)N2CCOCC2)ccc1Sc1ccccc1N	-22%
Cc1ccc(C(=O)NC(c2ccccc2)C(Cl)Cl)cc1 (centres undefined)	-13%
COC(=O)CCCC(=O)O	-6%
Cc1cc(C)n(C(=O)c2ccc(Cn3nc(C)c(Br)c3C)o2)n1	-6%
COC(=O)C1C(=O)CC(C)(O)C(C(=O)OC)C1/C=C/c1ccccc1 (centres undefined)	-11%
c1ccc2[nH]c(-c3nc4ccccc4[nH]3)nc2c1	-26%
COc1ccc2nc(C)cc(SCC(=O)NNC(=O)COc3ccccc3)c2c1	-11%
CCCCN1C(=O)c2ccc(C(=O)NC3=NCCS3)cc2C1=O	-3%
O=C(c1ccc(N2C(=O)C3C4c5ccccc5C(c5ccccc54)C3C2=O)cc1)N1CCOCC1 (centres undefined)	?
Cc1ccc(C)c(N2CCN(S(=O)(=O)c3ccc4[nH]c(=O)c(=O)[nH]c4c3)CC2)c1	-16%
CCN(CC)S(=O)(=O)c1ccc(NC(=O)COc2c(OC)cccc2OC)cc1	-18%
N#C/C(=C/c1ccc(N2CCOCC2)o1)c1ccc(Cl)cc1	?
CCOC(=O)N1CCN(C(=O)CCSCCc2ccncc2)CC1	0%
CN(C(=O)CSc1nc2cc([N+](=O)[O-])ccc2n1-c1ccc(F)cc1)C1CCS(=O)(=O)C1 (centres undefined)	-11%
COc1ccc2c(c1)CCc1c(C(=O)Nc3ccn(Cc4ccc(C)cc4)n3)noc1-2	6%
O=C(Nc1ccc(Cc2ccncc2)cc1)C1CCC(N2C(=O)C3CC=CCC3C2=O)CC1 (centres undefined)	8%
COc1ccc(-c2csc(NC(=O)Cn3nc(C)cc3C)n2)cc1	-9%
COc1ccc(CCNC(=O)C(=O)NCc2ccc(C)cc2)cc1OC	-11%
CCc1nnc(NC(=O)C2CCN(S(=O)(=O)Cc3ccccc3)CC2)s1	-8%
Cc1cc(C)cc(Oc2nc(C(F)(F)F)nc3ccccc23)c1	-11%
O=C(Nc1ccccc1-c1ccccc1)C1CCCN(c2ncccn2)C1 (centres undefined)	-18%
COC(=O)c1ccc(N2C(=O)CC(N(C)CCc3ccc(OC)c(OC)c3)C2=O)cc1 (centres undefined)	-12%
COc1cccc(/C=N/n2c(SC)nnc2-c2ccccc2)c1O	-25%
O=C(CN(Cc1ccco1)C(=O)c1ccccc1)Nc1ccc(Cl)c(Cl)c1	-15%
O=C1CCC(=O)N1CC(=O)N1c2ccccc2Sc2ccccc21	-2%
Cc1ccc(CCNC(=O)C2CCCN(S(=O)(=O)c3c(C)noc3/C=C/N(C)C)C2)cc1 (centres undefined)	-24%
Cc1cnn(-c2cc(N/N=C/c3ccccc3Cl)ncn2)c1	-19%
COc1ccc(S(=O)(=O)N2CCCCC2)cc1NC(=O)Cc1c[nH]c2ccccc12	-17%
O=C(COc1ccc(Cl)cc1Cl)NCCCn1ccnc1	-14%
Cc1nn(-c2ccccc2)c(C)c1/C=C/C(=O)OCC(=O)Nc1ncc(Cl)cc1Cl	?
COc1cccc(NC(=O)CC2C(=O)NC3CCCCC3N2C(=O)c2ccc(F)cc2)c1 (centres undefined)	1%
COc1cccc(CNc2cnc3ccccc3c2)c1O	?
CCOC(=O)N/N=C/c1ccc(F)cc1F	-11%
Cc1[nH]nc2c1C(c1cc(Br)cs1)C(C#N)=C(N)O2 (centres undefined)	-25%
CCS(=O)(=O)N1CCN(C(=O)c2ccco2)CC1	-4%
O=C(c1ccccc1)c1nc[nH]c1C(=O)Nc1ccccc1	-3%
CCOC(=O)c1c(C)[nH]c(C(=O)COC(=O)c2ccccn2)c1C	-7%
CCN(CC)S(=O)(=O)c1cccc(-c2n[nH]c(=S)n2/N=C/c2ccc(OC(F)F)cc2)c1	3.2µM*
COc1ccc(OCC(=O)Nc2ccc3c(c2)nc2n3CCSC2)cc1	-16%
O=C1c2ccncc2C(=O)N1Cc1cccc(Cl)c1	18µM*
COc1ccccc1N1CCN(C(CNC(=O)c2ccc3c(c2)OCO3)c2cccnc2)CC1 (centres undefined)	-15%
CC1Cc2ccccc2N1C(=O)CSc1nnc(-c2ccc(S(=O)(=O)N3CCCC3)cc2)n1C (centres undefined)	-8%
CCCOC(=O)C1C2C=C[C@]3(CN(CCc4ccccc4)C(=O)[C@H]13)O2 (some centres undefined)	-4%
O=C(Nc1ccon1)c1sc2ccccc2c1Cl	16µM*
Cc1cccc2cc(COC(=O)C(C)(C)C)c(=O)[nH]c12	-9%
COc1ccc(-c2nc3cnc(Nc4cccc(OC)c4)nc3n(CCC#N)c2=O)cc1	-3%
CC(C)OC(=O)c1nnn(-c2nonc2N)c1CN1CCc2ccccc2C1	-10%
CCOc1ccc(NC(=S)NCCCn2ccnc2)cc1	-9%
CCOC(=O)C1C(c2cccs2)NC(=O)NC1(O)C(F)(F)F (centres undefined)	-3%
CC(C)C(=O)Nc1nnc(Sc2ccc(N(C)C)cc2)s1	-16%

In another format: entries from further up.
HPGD inh	Molecule
1%	COc1cccc(NC(=O)CC2C(=O)NC3CCCCC3N2C(=O)c2ccc(F)cc2)c1 (centres undefined)
?	COc1cccc(CNc2cnc3ccccc3c2)c1O
-11%	CCOC(=O)N/N=C/c1ccc(F)cc1F
-25%	Cc1[nH]nc2c1C(c1cc(Br)cs1)C(C#N)=C(N)O2 (centres undefined)
-4%	CCS(=O)(=O)N1CCN(C(=O)c2ccco2)CC1
-3%	O=C(c1ccccc1)c1nc[nH]c1C(=O)Nc1ccccc1
-7%	CCOC(=O)c1c(C)[nH]c(C(=O)COC(=O)c2ccccn2)c1C
3.2µM*	CCN(CC)S(=O)(=O)c1cccc(-c2n[nH]c(=S)n2/N=C/c2ccc(OC(F)F)cc2)c1
-16%	COc1ccc(OCC(=O)Nc2ccc3c(c2)nc2n3CCSC2)cc1
18µM*	O=C1c2ccncc2C(=O)N1Cc1cccc(Cl)c1
-15%	COc1ccccc1N1CCN(C(CNC(=O)c2ccc3c(c2)OCO3)c2cccnc2)CC1 (centres undefined)
-8%	CC1Cc2ccccc2N1C(=O)CSc1nnc(-c2ccc(S(=O)(=O)N3CCCC3)cc2)n1C (centres undefined)
-4%	CCCOC(=O)C1C2C=C[C@]3(CN(CCc4ccccc4)C(=O)[C@H]13)O2 (some centres undefined)
16µM*	O=C(Nc1ccon1)c1sc2ccccc2c1Cl
-9%	Cc1cccc2cc(COC(=O)C(C)(C)C)c(=O)[nH]c12
-3%	COc1ccc(-c2nc3cnc(Nc4cccc(OC)c4)nc3n(CCC#N)c2=O)cc1
-10%	CC(C)OC(=O)c1nnn(-c2nonc2N)c1CN1CCc2ccccc2C1
-9%	CCOc1ccc(NC(=S)NCCCn2ccnc2)cc1
-3%	CCOC(=O)C1C(c2cccs2)NC(=O)NC1(O)C(F)(F)F (centres undefined)
-16%	CC(C)C(=O)Nc1nnc(Sc2ccc(N(C)C)cc2)s1

Following part
SMILES	HPGD inh
O=C(CN1C(=O)C2C3C=CC(C3)C2C1=O)Nc1cccc2c1CCCC2 (centres undefined)	-6%
CCOc1ccc(NC(=O)CN(C)c2ccc(S(=O)(=O)N(C(C)C)C(C)C)cn2)cc1OCC	0%
NC(=O)SC/C(=N\S(=O)(=O)c1ccccc1)Nc1ccccc1	-8%
Cc1ccc(NC(=O)/C(=C/c2cccc([N+](=O)[O-])c2)NC(=O)C2CCCCC2)c(C)c1	-14%
COc1cccc(NC(=O)CSCC(=O)Nc2ccccc2)c1	-13%
CCCn1nc(NC(=O)c2ccco2)c2cc3ccc(C)cc3nc21	?
COc1ccccc1NC(=O)CSc1nnc(Cc2cccn2C)n1CCc1ccccc1	-13%
O=C1CC(C(=O)Nc2ccc(Br)cc2)C2(CCCC2)O1 (centres undefined)	-14%
COc1ccc(C(=O)N2CCC[C@@]3(CCN(C(=O)Nc4cccc(C#N)c4)C3)C2)cc1	-9%
O=C(CO/N=C/c1cccc([N+](=O)[O-])c1)NC1CCCCC1	?
COC(=O)C1=C(C)NC(C)=C(C(=O)OC)C1C1CC=CCC1 (centres undefined)	-17%
COC(=O)c1sccc1NC(=O)c1cc(OC)cc(OC)c1	?
N#CC1=C(N)C2=C(N3CCCCC3)CCCC2C1(C#N)C#N (centres undefined)	-1%
CC(=O)Cn1c(C(F)(F)F)nc2ccccc21	-13%
CN1/C(=C/C(=O)C2CCC2)Sc2ccccc21	-29%
Cc1cccc(N2CCN(C(c3ccc(N(C)C)cc3)c3nnnn3C(C)(C)C)CC2)c1C (centres undefined)	-14%
CCOc1ccc2nc(SCC(=O)NC(=O)NCc3ccco3)sc2c1	-23%
CCOC(=O)c1sc2nc(SCC(=O)NCc3ccco3)n(Cc3ccccc3)c(=O)c2c1C	-26%
O=C(CC1SC(=O)N(c2ccccc2)C1=O)Nc1ccccc1 (centres undefined)	?
CCCC(=O)Nc1ccc(NC(=O)C23CC4CC(CC(C4)C2)C3)cn1	1%
CN(C)N1C(=O)CC(NNC(=O)c2ccncc2)C1=O (centres undefined)	-2%
COc1cc2cc(Br)cc(Br)c2nc1C	-15%
COC(=O)c1sc2cc(C(F)(F)F)cnc2c1-c1cccnc1	-12%
Cn1c(-c2cccc(OCc3ccccc3)c2)nc2c1c(=O)[nH]c(=O)n2Cc1ccccc1	?
Cc1c(C(=O)NCc2cccnc2)oc2ccc(S(=O)(=O)N3CC(C)CC(C)C3)cc12 (centres undefined)	-5%
Cc1ccc(Nc2nc3nonc3nc2N(C)C)cc1	-9%
O=C(Nc1ccccc1-c1ccccc1)c1cccc([N+](=O)[O-])c1	-5%
O=C(NC1CCCCC1)N(Cc1cc2cc3c(cc2[nH]c1=O)OCCO3)CC1CCCO1 (centres undefined)	?
COc1ccc(CC(=O)NNc2ncnc3c2cnn3C)cc1OC	1%
COc1ccccc1OCCSc1ncnc2nc[nH]c12	-11%
CCOC(=O)C1(CC)NC(c2cccc(F)c2)C2C(=O)N(CC)C(=O)C21 (centres undefined)	-2%
COc1cc(C)c(CN2CCCCC2CO)cc1C (centres undefined)	-4%
CCOc1ccc(-c2cc(C(=O)NN)[nH]n2)cc1	2%
Oc1ccc(/C=N/Nc2nccnc2Cl)c(O)c1	28µM*
CC(C)(C)N1CC(c2nc3ccccc3n2CCOc2ccccc2)CC1=O (centres undefined)	-7%
COc1cccc2cc(C(=O)N3CCN(c4ncccn4)CC3)c(=O)oc12	-21%
COc1ccc(NC(=O)c2ccc(CN3CCN(c4ccccc4)CC3)cc2)cc1	-18%
CCCCNc1nc(=S)[nH]c2cc(OC)c(OC)cc12	-14%
O=C1CSC(c2ccc(F)cc2)N1c1nc2ccccc2s1 (centres undefined)	-7%
COc1cccc([C@@H]2Oc3ccc(Br)cc3C(=O)[C@H]2OC(=O)NCc2ccco2)c1	-6%
COC(=O)C1C(=O)C=C(Nc2ccc(F)cc2)CC1c1ccc(OC)cc1 (centres undefined)	-11%
Cc1occc1C(=O)NCCCCc1ccccc1	20µM*
Cc1cc(=O)[nH]c2cc(Cl)ccc12	-3%
CCOC(=O)CSc1nc2ccc(N3CCOCC3)cc2c(=O)n1Cc1ccc2c(c1)OCO2	?
O=C(CCc1ccc(S(=O)(=O)N2CCOCC2)cc1)OCc1nc2ccccc2s1	-11%
O=C(COC(=O)c1ccc(Cl)s1)c1cc2ccccc2o1	35µM*
CCCn1nnc(NC(=O)c2ccc(Cl)cc2Cl)n1	-22%
Cc1ccc(CN(Cc2cccnc2)C(=O)CN2C(=O)COc3ccccc32)o1	-9%
CCOC(=O)C1CCCN(CCC(=O)Nc2ccc(F)c(F)c2)C1 (centres undefined)	-5%
CCCc1c(O)nc(SC2CC(=O)N(c3cc(OC)ccc3OC)C2=O)[nH]c1=O (centres undefined)	-6%
COc1ccc(CCC(=O)N2CCN(S(=O)(=O)c3ccc4ccccc4c3)CC2)cc1	-19%
CN(Cc1cc(Br)cc(Br)c1N)C1CCCCC1	-10%
C#CCSc1n[nH]c(-c2ccco2)n1	?
Cc1ccsc1C1C(C(=O)O)c2ccccc2C(=O)N1C (centres undefined)	-14%
CCN(CC)c1c([N+](=O)[O-])c(=O)sc2ccccc12	?
COc1cccc(-c2nc(CS(=O)(=O)CC(=O)NCc3ccccc3)c(C)o2)c1	-19%
O=C1CCCC2=C1C(c1ccco1)Nc1ccc3ccccc3c12 (centres undefined)	?
CCC1=C(C)CN(C(=O)NCCc2ccc(S(=O)(=O)NC(=O)NC3CCC(C)CC3)cc2)C1=O (centres undefined)	-9%&-4%
CCc1c(C(=O)Nc2nnc(C3CC3)s2)csc1C	-11%
COc1ccc(-n2c(SCC(=O)Nc3nccs3)nc3sc4c(c3c2=O)CCN(C)C4)cc1	-10%
CCOc1ccc(C2CC(=O)NC3=C2C(=O)CCC3)cc1 (centres undefined)	-9%
CCC(=O)Nc1ccc(C(=O)CSc2nc3ccccc3cc2CC)cc1	-8%
